Mtb H37Rv = Confirmatory growth inhibition assay against Mycobacterium tuberculosis H37Rv, potency (AID 1949). most inactive calls were filed without a number and no value below 0 was filed. one-dose inhibition, % at 10 µg/mL; IC50 in µg/mL for titrated hits. actives 1.6% (n = 100,000);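 active means confirmed in a dose series; inconclusive means about 50% or more but not retested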;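 further: bacteria grown 7 days with compound before Alamar blue readout; 0% = untreated bacteria and 100% = reference antibiotic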
* marks the source's active call; other numbers are inactive results; i = inactive; ? = inconclusive. Some of the compounds tested. The share of hits here may be higher or lower than overall.

SMILES	Mtb H37Rv
CCOc1ccc(-c2n[nH]c(C(=O)N/N=C/c3ccc(C(=O)OC)cc3)c2C)cc1	9%
COc1ccc(S(=O)(=O)N2CCN(c3cccc(Cl)c3Cl)CC2)cc1C	i
Cc1nc2cc(NC(=O)Nc3cccc(F)c3)ccc2n1C	i
COc1ccc(-c2nnnn2C)cc1S(=O)(=O)NCc1ccccc1	0%
Cc1c(Cc2ccccc2)c(=O)oc2c(CN(C)C)c(O)c(Cl)cc12	i
C=CCn1c(CCNC(=O)c2cccc(C)c2)nnc1SCc1ccc(Cl)cc1Cl	i
Cc1ccc(SC(C)C(=O)Nc2cccnc2)cc1 (stereo not drawn)	i
COc1cc(NC(=O)c2cccc(COCC(F)(F)C(F)F)c2)cc(OC)c1OC	i
COc1ccc(CNc2oc(-c3ccccc3)nc2C#N)cc1	5%
O=C(NC(=S)c1ccccc1)Nc1ccc(F)cc1	?
CCCCN(CCCC)C(=O)C(C)CCC (stereo not drawn)	i
O=C1CC2(CC(=O)Oc3cc(O)ccc32)c2ccc(O)cc2O1	i
COc1cc(CNCc2ccccc2Cl)ccc1OCC(=O)NC1CCCCC1	4%
CC(C)NC(=O)c1ccccc1NC(=O)CSCc1cccc(Cl)c1	i
COc1ccc(OCCOc2ccc(C)cc2)cc1	3%
CCOC(=O)c1c(-c2ccc(OC)cc2)oc2ccc(OC(=O)N3CCOCC3)cc12	i
CCSc1ncnc2c1sc1nc3c(cc12)COC(C)(C)C3	0%
CC(=O)Oc1ccc2c(C)c(C)c(=O)oc2c1OC(C)=O	i
CC(C)C(NC(=O)c1ccc(Cl)cc1)c1nnc(SCC(=O)Nc2cccc(C(F)(F)F)c2)n1C (stereo not drawn)	i
CC(=O)c1ccc(N2CCN(c3cc(C)c([N+](=O)[O-])cc3F)CC2)c(F)c1	i
Nc1ccc(SC(F)(F)F)cc1C(=O)c1ccccc1	i
CCOc1ccc(NC(=O)CNC(=O)c2ccc(F)cc2)cc1	i
CCn1c(C)c(C(C)=O)c(N2CCN(c3cccc(Cl)c3)CC2)nc1=S	i
COc1ccc(N(CC(=O)Nc2ccccc2C(=O)NCC(C)C)S(=O)(=O)c2ccccc2)cc1	i
Fc1ccc(N2CCN(C(=S)NC3CCCCC3)CC2)cc1	9%
Cc1ccc(S(=O)(=O)N(C)c2c(C)ccc(S(=O)(=O)NCc3ccccc3)c2C)cc1	i
Cc1cc(SC(C)C(=O)O)nc2ccccc12 (stereo not drawn)	i
CCc1nc2ccccc2n1CC(=O)N(c1ccccc1)C(C)C	i
S=c1[nH]nc(Cc2ccc(Cl)cc2)o1	i
COc1c(Cl)cc(Cl)cc1C(=O)Nc1ccc(I)cn1	i
O=C(c1cccc(S(=O)(=O)N2CCCC2)c1)N1CCN(c2ccccc2)CC1	i
Cc1ccc(S(=O)(=O)c2nc(S(=O)(=O)c3ccc(C)cc3)c(N3CCCCC3)s2)cc1	3%
Cc1ccc(C)c(C(C)NC(=O)COc2ccccc2Cl)c1 (stereo not drawn)	1%
Oc1ccccc1C(=S)N1CCN(c2cccc(Cl)c2)CC1	i
CCOC(=O)C1=C(c2ccccc2)NC(=O)NC1c1cc(OC)c(O)cc1Br (stereo not drawn)	i
CN(CC(=O)NC1CC1)S(=O)(=O)c1ccc(Cl)cc1	i
N/C(Cc1cccc2ccccc12)=N\OC(=O)c1ccc2c(c1)OCO2	i
O=C(CSc1ccc(Cl)cc1)NC1CCCCCC1	i
COc1ccc(CSCC(=O)Nc2ccccc2SC)cc1	i
COc1ccc(N(C(C)C(=O)Nc2cc(C)ccc2OC)S(C)(=O)=O)cc1 (stereo not drawn)	i
Cc1cc(OCC(=O)NCc2cccnc2)cc(C)c1Cl	i
Cn1c(NCc2ccco2)nc2c1c(=O)n(CCc1ccccc1)c(=O)n2C	i
CCOc1cc(C(=O)Nc2ccc(N3CCN(Cc4ccccc4)CC3)cc2)cc(OCC)c1OCC	0%
COc1cc(NC(=O)COc2cc(C)cc(C)c2)ccc1NC(=O)C(C)C	i
CC1CCN(C(=O)CN(c2ccccc2Br)S(C)(=O)=O)CC1	i
CCOc1ccccc1-c1nc(-c2ccccn2)no1	i
CCOc1cccc(C(=O)Nc2nnc(C(C)C)s2)c1	0%
COc1ccccc1Oc1ccc(NS(=O)(=O)c2cccc(C(F)(F)F)c2)cc1	i
COc1ccc(-c2nc3cc(NC(=S)NC(=O)c4ccc(Cl)cc4)ccc3o2)cc1OC	2%
O=C(O)c1cccc(NS(=O)(=O)c2cc(C(=O)Nc3ccccc3)ccc2Cl)c1	i
O=C(Oc1ccc(Br)cc1C(=S)N1CCCC1)c1cc(Cl)ccc1Cl	i
CC(C(=O)N1CCCC1)N(c1ccc(Oc2ccccc2)cc1)S(C)(=O)=O (stereo not drawn)	i
CCOC(=O)c1ccc(N2C(=O)CC(NC3CCN(C(=O)c4ccc(F)cc4)CC3)C2=O)cc1 (stereo not drawn)	i
O=S1(=O)C=C(N2CCCC2)c2ccccc21	11%
Cc1ccc2nc(NC(=O)CS(=O)(=O)c3ccccc3)sc2c1	i
CC1(C)CC2CC(C)(CN2C2CC(=O)N(c3ccc(F)cc3)C2=O)C1 (stereo not drawn)	i
CN1C(=O)CC(N2CCN(Cc3ccc(Cl)cc3)CC2)C1=O (stereo not drawn)	i
O=C(c1cccc([N+](=O)[O-])c1)N1CCOCC1	i
CCOc1ccc(S(=O)(=O)n2cc(-c3ccc([N+](=O)[O-])cc3)c(N)n2)cc1	i
CCOC(=O)c1ccc(NC(=O)C(=O)NC2CCCCCC2)cc1	2%

For reference, some entries already given.
SMILES	Mtb H37Rv
O=C(c1cccc([N+](=O)[O-])c1)N1CCOCC1	i
CCOc1ccc(S(=O)(=O)n2cc(-c3ccc([N+](=O)[O-])cc3)c(N)n2)cc1	i
CCOC(=O)c1ccc(NC(=O)C(=O)NC2CCCCCC2)cc1	2%

Carrying on.
SMILES	Mtb H37Rv
CC(=O)c1cc2c(cc1NC(=O)Nc1ccc(Cl)cc1)OCCO2	0%
CNC(=O)C12CC3CC(C1)CC(C(=O)NC)(C3)C2	i
Cc1cc(S(=O)(=O)NCC(C)C)ccc1OCC(=O)NCc1ccncc1	i
c1ccc(CCSc2nnc(-c3ccc4c(c3)OCO4)n2-c2ccccc2)cc1	i
Cc1sc2ncn(CC(=O)N3CCC(C)CC3)c(=O)c2c1C	i
COC(=O)C1=C(C)O/C(=C2/C=CC=CN2)C(C)=C1	3%
COc1cccc(/C=C(/C#N)S(=O)(=O)c2ccc(C)cc2)c1OC	i
O=C(NCc1ccccc1)C(Cc1ccccc1)N1C(=O)C2C3C=CC(C3)C2C1=O (stereo not drawn)	i
Cn1nc(-c2ccc(N3CCCCC3)c(NS(C)(=O)=O)c2)c2ccccc2c1=O	i
Cc1nc(SCC(=O)NCC2CCCO2)c2c3c(sc2n1)CCC3 (stereo not drawn)	i
O=c1/c(=C/c2ccc([N+](=O)[O-])cc2)c2cccc3cccc1c32	i
Cc1cc(Br)ccc1OCC(=O)Nc1ccccc1C(C)(C)C	1%
Cc1ccc(NC(=O)CSc2n[nH]c(-c3ccncc3)n2)cc1	i
O=C(Nc1cccc(F)c1)c1ccc(CN2CCOCC2)cc1	i
O=C(CCCN1C(=O)c2cccc3cccc(c23)C1=O)Nc1ccc(N2CCOCC2)cc1	i
CCOC(=O)C1=C(C)NC(=O)NC1c1ccccc1O (stereo not drawn)	2%
CCOC(=O)c1sc2ncn(CC(=O)N3CCCCC3)c(=O)c2c1C	i
NC(=O)c1c(NC(=O)c2cccc(F)c2)sc2c1CCC2	36%
COc1ccc(C(=O)N2CCN(C(=O)c3cccc(F)c3)CC2)cc1	3%
CCOc1ccc(-c2cc(C(=O)NCCN3CCOCC3)c3ccccc3n2)cc1	i
CC(=O)N1CCN(c2ccc(NC(=S)NC(=O)c3ccccc3)cc2)CC1	i
Cc1ccc(C)c(OCCCC(=O)NC2CCCC2)c1	i
CCCOc1ccc(N2C(=O)CC(N3CC=C(c4ccccc4)CC3)C2=O)cc1 (stereo not drawn)	i
CC12c3ccccc3C(c3ccccc31)C1C(=O)N(c3ccccc3Br)C(=O)C12 (stereo not drawn)	i
Cc1cc2sc(NC(=O)c3cc(Br)ccc3Cl)nc2cc1Cl	i
Cc1cccc(NC(=S)NCc2ccco2)c1C	i
CC(C)(Oc1ccc(Cl)cc1)C(=O)Nc1ccc(Br)cc1F	i
CCOc1ccccc1C(=O)NNC(=S)Nc1ccc(Br)cc1	i
COc1ccc(S(=O)(=O)N2CCC(C(=O)NCCc3ccccc3)CC2)cc1Cl	i
COc1cc(C)c(Cl)c(C)c1S(=O)(=O)NC1CC(C)(C)NC(C)(C)C1	i
CCOC(=O)COc1ccc2c(C)c(CC(=O)OC)c(=O)oc2c1C	7.4µg/mL*
CCc1ccc(N(CC(=O)N2CCc3ccccc3C2)S(C)(=O)=O)cc1	2%
CCOc1cc(C=O)cc(I)c1OC	i
Cc1nnc(SC(C(=O)c2ccccc2)c2ccccc2)s1 (stereo not drawn)	1%
CCN(CC)S(=O)(=O)c1ccc(OC)c(NC(=O)CS(=O)(=O)Cc2ccccc2)c1	i
CCOc1ccc(N2CC(C(=O)Nc3ccc(C)c(Cl)c3)CC2=O)cc1 (stereo not drawn)	i
COCCNS(=O)(=O)c1ccc(OCC(=O)OC)c(Cl)c1	i
COC(=O)c1sc(NC(=O)c2cccnc2)c(C#N)c1C	i
COc1ccc(CNC(=S)Nc2cccc3ccccc23)cc1OC	i
CC1CCc2cc(F)ccc2N1S(=O)(=O)c1ccc(F)cc1 (stereo not drawn)	4%
Cc1ccc(SCc2[nH]nc3c2C(c2ccoc2)C(C#N)=C(N)O3)cc1 (stereo not drawn)	i
O=C(COC(=O)c1cc(-c2ccccc2)nc2ccc(Cl)cc12)c1ccc([N+](=O)[O-])cc1	i
CCOc1ccc(NC(=S)N(C)C)cc1	i
COc1cccc(C2=NN(S(C)(=O)=O)C(c3ccco3)C2)c1 (stereo not drawn)	i
COc1ccc(-c2nc3cc(NC(=O)c4ccc(C)cc4)ccc3o2)cc1	i
Cc1ccc(S(=O)(=O)CCC(=O)OCc2ccc(S(=O)(=O)c3ccccc3)cc2)cc1	i
COc1ccccc1OCc1ccc(C(=O)NCc2ccncc2)o1	i
COc1ccccc1CNS(=O)(=O)Cc1ccc(Cl)cc1	i
Cc1ccc(C)c(OCC(=O)Nc2cccc(-c3nnc(-c4ccco4)o3)c2)c1	i
O=C(COc1ccc(Br)cc1Cl)Nc1ccc(Cl)cc1C(F)(F)F	i
CC(C)C(=O)N1CCN(c2ccccc2NC(=O)c2ccc(C#N)cc2F)CC1	1%
Clc1ccccc1Cn1c(Cc2ccccc2)nc2ccccc21	5%
Cc1cc(Cl)ccc1OCC(=O)NCCCn1ccnc1	i
CCCCOc1ccc(C(=O)Nc2cc([N+](=O)[O-])ccc2C)cc1	i
Cc1ccccc1NC(=O)N1CCCC(C(N)=O)C1 (stereo not drawn)	i
CCn1c(=O)c([N+](=O)[O-])c(N2CC(C)CC(C)C2)c2ccccc21 (stereo not drawn)	4%
Nc1nc(-c2cccnc2)nn1C(=O)COc1ccccc1	i
Cc1c(NC(=O)CC(C)C)ccc([N+](=O)[O-])c1C	i
Cc1ccc(N=Cc2c(C)[nH]n(-c3ccccc3)c2=S)c(C)c1	1%
CSCCNC(=O)c1ccc(C(C)(C)C)cc1	i

Additional records
SMILES	Mtb H37Rv
CNC(=S)NNC(=O)COc1cccc(C)c1C	i
O=C(CS(=O)(=O)Cc1ccccc1)Nc1ncccn1	0%
COc1cc(S(=O)(=O)N(C)C)ccc1F	i
CCOc1ccc(NC(=S)Nc2cc(-c3ccccc3)[nH]n2)cc1	?
CN(CCO)S(=O)(=O)c1ccc2c(c1)oc(=O)c1cc(S(=O)(=O)N(C)CCO)ccc12	i
CCc1cccc(C)c1NC(=O)COc1ccc(S(=O)(=O)Nc2ccc(C)cc2)cc1	i
CC1=C(C(=O)OC(C)C)C(c2c(F)cccc2Cl)NC(=O)N1 (stereo not drawn)	5%
N#CCCOC1(C#CC#CC2(OCCC#N)CCCCC2)CCCCC1	5%
NC(=O)C1CCCCc2c1[nH]c1ccc(Cl)cc21 (stereo not drawn)	3%
CC(=O)c1cccc(NC(=O)c2cccc3ccccc23)c1	5%
N#CC1=C(SCc2ccccc2Cl)NC(=O)CC1c1cccc(Br)c1 (stereo not drawn)	i
CC(C)N(C(=O)Cn1c(=O)[nH]c2ccccc21)c1ccccc1	i
CC1CCC(N2CCN(C(=O)c3cccs3)CC2)CC1 (stereo not drawn)	i
CCc1c(C)c2ccc(OCC(=O)OC)c(C)c2oc1=O	0.54µg/mL*
COc1ccc2cc(Br)ccc2c1CC(=O)NCc1ccco1	i
Cc1n[nH]c(=O)nc1NCC1CCCO1 (stereo not drawn)	i
O=C(Cc1ccccc1)Oc1ccccc1N1C(=O)CCC1=O	i

Grouped by structure: the compounds so far containing four or more nitrogen atoms (16)
SMILES	Mtb H37Rv
CCOc1ccc(-c2n[nH]c(C(=O)N/N=C/c3ccc(C(=O)OC)cc3)c2C)cc1	9%
Cc1nc2cc(NC(=O)Nc3cccc(F)c3)ccc2n1C	i
COc1ccc(-c2nnnn2C)cc1S(=O)(=O)NCc1ccccc1	0%
C=CCn1c(CCNC(=O)c2cccc(C)c2)nnc1SCc1ccc(Cl)cc1Cl	i
CC(C)C(NC(=O)c1ccc(Cl)cc1)c1nnc(SCC(=O)Nc2cccc(C(F)(F)F)c2)n1C (stereo not drawn)	i
CCn1c(C)c(C(C)=O)c(N2CCN(c3cccc(Cl)c3)CC2)nc1=S	i
Cn1c(NCc2ccco2)nc2c1c(=O)n(CCc1ccccc1)c(=O)n2C	i
CCOc1ccc(S(=O)(=O)n2cc(-c3ccc([N+](=O)[O-])cc3)c(N)n2)cc1	i
Cn1nc(-c2ccc(N3CCCCC3)c(NS(C)(=O)=O)c2)c2ccccc2c1=O	i
Cc1ccc(NC(=O)CSc2n[nH]c(-c3ccncc3)n2)cc1	i
CC(=O)N1CCN(c2ccc(NC(=S)NC(=O)c3ccccc3)cc2)CC1	i
Cc1ccc(SCc2[nH]nc3c2C(c2ccoc2)C(C#N)=C(N)O3)cc1 (stereo not drawn)	i
CC(C)C(=O)N1CCN(c2ccccc2NC(=O)c2ccc(C#N)cc2F)CC1	1%
Nc1nc(-c2cccnc2)nn1C(=O)COc1ccccc1	i
CCOc1ccc(NC(=S)Nc2cc(-c3ccccc3)[nH]n2)cc1	?
Cc1n[nH]c(=O)nc1NCC1CCCO1 (stereo not drawn)	i
